# Screening results as filed in PubChem BioAssay.
# Calb biofilm kill = mixture kills Candida albicans biofilm cells | inhibition, % at 7.6 µM | 120,000 tested, 0.02% active | C. albicans biofilm persisters + clotrimazole, fluorescence viability; primary screen in compound mixtures of four per well;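 active = inhibition above 30.3% in the primary screen of four-compound pools, then above 30% when the compound was retested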;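 note: compounds exposed to preformed 24 h biofilms for 48 h; the number belongs to the whole pool; some results filed as inactive read as strong as hits; inactives centre near 12; 0% = biofilm with clotrimazole alone and 100% = kill control; retested singly at about 60 µM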
#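 System: C. albicans CAF4-2 wild-type biofilms; Medium: RPMI/MOPS medium, pH 7.0; Reagent: Clotrimazole, 50 µg/mL; Times: biofilm formation 24 h, compound exposure 48 h, 37 °C; Detection: 2-h Alamar Blue fluorescence, 535/590 nm excitation/emission; Evaluation: percent inhibition of biofilm viability.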
# * hit, by the source's call. An excerpt; count on the stated rates, not on these rows.
SMILES,Calb biofilm kill
Clc1ccc(Nc2cc(-c3ccccc3)nc3ncnn23)cc1,17
Cc1cccc(-c2cc3nc(C)c(C)c(NCCCn4ccnc4)n3n2)c1,15
O=C(CNS(=O)(=O)c1c(Cl)cccc1Cl)OCC(=O)N1CCN(c2ccccc2)CC1,18
COC(=O)CC(N)c1ccc(Br)cc1 (centres undefined),7
O=C(CNC(=O)/C(=C/c1ccccc1)NC(=O)c1ccc(Br)cc1)OCc1ccccc1,18
S=C(NCCN1CCOCC1)Nc1cccc2ccccc12,16
CCN(CC)c1ccc(/C=N/NC(=O)Cc2ccc(OC)c(OC)c2)cc1,15
O=C(O)c1ccc(Nc2cc(Cl)c3nonc3c2[N+](=O)[O-])cc1,9
Cc1ccc(-c2nnc(Nc3ccc4c(c3)OCO4)c3ccccc23)cc1S(N)(=O)=O,10
C/C=C\C=C/C(=O)Nc1cccc(C2=NOC3(C2)C[C@H](C(N)=O)N(C(=O)Cc2ccc([N+](=O)[O-])cc2)C3)c1 (some centres undefined),9
O=C(COc1ccccc1)N/N=C/c1ccc([N+](=O)[O-])o1,4
O=C(NCc1ccccn1)c1ccc(Cl)c(S(=O)(=O)Nc2ccccc2C(=O)NCc2ccccn2)c1,20
Cc1ccc(OCc2nc(-c3cccnc3)no2)cc1C,47
CC(=O)CCc1ccc(OCC(O)CNC2CCCc3ccccc32)cc1 (centres undefined),9
Cc1ccc(NC(=O)C2CCN(c3cnccn3)CC2)cc1C,9
COc1ccc(CNC(=O)COC(=O)C2CC3C=CC2C3)cc1 (centres undefined),29
COc1ccc(N2CC(NC(=O)NCC(C)C)CC2=O)cc1 (centres undefined),16
Cc1ccc(N=C/C(C(=O)C(F)(F)F)=C(\O)c2ccco2)cc1Cl,10
Cc1c(Br)c([N+](=O)[O-])nn1CCCC(=O)Nc1c(C)n(C)n(-c2ccccc2)c1=O,8
O=S(=O)(/N=C(/Nc1ccc(Cl)cc1Cl)c1ccccc1)c1cccs1,6
Cc1cc(C)c(S(=O)(=O)Nc2ccccc2-c2ccccc2)c(C)c1,18
O=C(Nc1cc2c(cc1Cl)OCCCO2)c1ccco1,9
Fc1ccc(C2=Nn3c(nnc3-c3ccco3)SC2)cc1,14
O=C(O)c1ccc(/C=N/N2CCN(Cc3ccccc3)CC2)cc1,-7
CCOC(=O)Nc1sc2c(c1C(N)=O)CCC(C)C2 (centres undefined),17

# 2 of these compounds in a different format:
mol | Calb biofilm kill
COc1ccc(N2CC(NC(=O)NCC(C)C)CC2=O)cc1 (centres undefined) | 16
Cc1ccc(OCc2nc(-c3cccnc3)no2)cc1C | 47

# More structures follow:
SMILES,Calb biofilm kill
N#CCCN1CCN(C(=O)c2c(N)no[n+]2[O-])CC1,-2
O=C(O)c1ccccc1-n1cnnn1,9
CN(C)CCCNC1=CC(=O)CC(c2ccccc2)C1 (centres undefined),9
Cc1cc(C)c(OCC(=O)N(Cc2ccc(N(C)C)cc2)C2CCS(=O)(=O)C2)c(C)c1 (centres undefined),19
CN(C(=O)CSc1nnc(-c2ccccc2)c(-c2ccccc2)n1)C1CCS(=O)(=O)C1 (centres undefined),16
O=C(C(c1ccccc1)c1ccccc1)N1CCCc2ccccc21,10
CCN(CC)S(=O)(=O)c1cccc(NC2=NCC(C)S2)c1 (centres undefined),7
CC(=O)c1ccc(N2CCN(CC(=O)Nc3cc(C)on3)CC2)cc1,4
CCOc1ccc(OCC)c(NC(=O)CSCCc2ccccn2)c1,14
C/C(=N\NC(=O)CCc1c[nH]c2ccccc12)c1ccc([N+](=O)[O-])cc1,17
O=C(CSc1nnnn1-c1cccc2c1CCCC2)N1CCCCC1,18
COc1ccc(NC(=S)N(CCc2c(C)[nH]c3ccc(C)cc23)Cc2cccnc2)cc1,12
O=C(NC1CCCCC1)C(=S)NCCc1ccccc1,15
CCOc1ccccc1OCCOCCOc1c(Cl)cccc1Cl,21
CSC1=NC(C)(C)C=C(/C=C/c2ccc(Cl)cc2)N1,15
CN(C)CC(C)(C)CNS(=O)(=O)c1ccc(Cl)cc1,4
CCOCCCNC(=O)c1ccc2c(=O)n(Cc3ccc(OC)cc3)c(=O)[nH]c2c1,21
COc1cc(C(=O)OCC#N)ccc1OCc1c(C)noc1C,12
CSS(=O)(=O)c1cccc2cccnc12,17
O=c1nc(N2CCOCC2)ccn1-c1nc(-c2ccccc2)sc1-c1ccccc1,3
Cc1ccc(OCCCn2ccnc2)c([N+](=O)[O-])c1,7
Cc1[nH]c2ccccc2c1C(=O)CSC(=S)N(C)C,14
Cc1ccc(-n2ncc3c(NNC(=O)c4ccco4)ncnc32)c(C)c1,5
COc1ccc(C2/C=C\CN(C(=O)C3CC3)[C@H](Cc3ccccc3)C(=O)N2Cc2ccc(F)cc2)cc1 (some centres undefined),15
CN(C)S(=O)(=O)c1ccc(NC(=O)CN2CCOCC2)cc1,20

# 6 entries picked at random from the list so far:
SMILES,Calb biofilm kill
CCOCCCNC(=O)c1ccc2c(=O)n(Cc3ccc(OC)cc3)c(=O)[nH]c2c1,21
C/C(=N\NC(=O)CCc1c[nH]c2ccccc12)c1ccc([N+](=O)[O-])cc1,17
O=C(NC1CCCCC1)C(=S)NCCc1ccccc1,15
Cc1ccc(-n2ncc3c(NNC(=O)c4ccco4)ncnc32)c(C)c1,5
O=C(O)c1ccccc1-n1cnnn1,9
CC(=O)c1ccc(N2CCN(CC(=O)Nc3cc(C)on3)CC2)cc1,4

# (further entries)
SMILES,Calb biofilm kill
COC(=O)c1csc(S(=O)(=O)N2CCCCC2)c1OC,16
COc1ccc(CCNC(=O)COC(=O)C2CC2)cc1,9
C=CCNC(=S)Nc1cc(C)ccn1,16
CC(=O)NC(NC(=S)Nc1ccc(S(N)(=O)=O)cc1)C(Cl)(Cl)Cl (centres undefined),33
CCCN(c1ccc(C)cc1)c1nc(=O)c2cccnc2s1,15
O=S(=O)(Nc1cccc(-c2ccc3nncn3n2)c1)c1cccs1,10
COc1ccc(/C(N)=N/OC(=O)COc2ccccc2Cl)cc1,7
COc1ccc(C2=NN(C(=S)Nc3ccccc3)C(c3ccccc3)C2)cc1 (centres undefined),7
O=C(CCSc1nnc(-c2ccc(O)cc2)o1)N1CCOCC1,15
Cc1cc(N2CCCC2=O)ccc1S(=O)(=O)Nc1c(C)nn(C)c1C,18
Cc1cccc(C)c1NC(=O)COC(=O)c1ccc([N+](=O)[O-])o1,3
O=S(=O)(c1ccc(F)cc1)N1CCN(C(=S)NCc2ccccc2)CC1,13
CCNC(=O)C(=O)N/N=C/c1cc([N+](=O)[O-])ccc1O,15
CC(CCCC(C)(C)O)NC(=O)c1cc(COc2ccc3ncccc3c2)on1 (centres undefined),12
COc1ccc(C(=O)CCC(=O)Nc2cccc(Cl)c2)cc1,20
Cc1cc(Br)cc(C)c1OCC(=O)NNC(=O)CCC(=O)NCc1ccccc1,13
CCOC(=O)c1cn(Cc2cccc(Cl)c2)c2cc(C)nn2c1=O,21
CC(NC(=O)CCn1nc(-c2ccc(Cl)cc2)ccc1=O)c1ccccc1 (centres undefined),12
c1ccc2c(c1)OCCOCCOCCOCCOCCOc1ccccc1OCCOCCOCCO2,7
O=C(NCc1ccccc1)C1c2ccccc2Oc2ccccc21,5
CN1C[C@@H]2C[C@@H](c3cccn3-c3nccs3)N3CCC[C@@]23C1=O,10
Cc1ccccc1NC(=O)Cc1nnc(SCC(=O)Nc2ccccc2)n1C,13
Cc1cc(C)c(NC(=O)C[N+](C)(C)CC(O)COc2cccc3ccccc23)c(C)c1 (centres undefined),16
CC(C)(C)OC(=O)[C@H]1[C@H](c2ccc([N+](=O)[O-])cc2)C2(C(=O)c3ccccc3C2=O)C2c3ccccc3C=NN21 (some centres undefined),1
O=C(N/N=C/c1ccncc1)c1cc2ccccc2o1,18

# Gathered by group, the entries above with an NH in an aromatic ring
SMILES,Calb biofilm kill
C/C(=N\NC(=O)CCc1c[nH]c2ccccc12)c1ccc([N+](=O)[O-])cc1,17
COc1ccc(NC(=S)N(CCc2c(C)[nH]c3ccc(C)cc23)Cc2cccnc2)cc1,12
CCOCCCNC(=O)c1ccc2c(=O)n(Cc3ccc(OC)cc3)c(=O)[nH]c2c1,21
Cc1[nH]c2ccccc2c1C(=O)CSC(=S)N(C)C,14

# Following part
SMILES,Calb biofilm kill
CCOP(=O)(OCC)C(Nc1ccccc1)c1cc(OC)ccc1OC (centres undefined),7
CCN1CCN(S(=O)(=O)c2cc(C(=O)O)ccc2Cl)CC1,6
O=C(O)CSCC(=O)Nc1ccc(Br)c(C(F)(F)F)c1,19
Cc1ccc(C2(C)NC(=O)N(CC(=O)Nc3cc(S(=O)(=O)N4CCOCC4)ccc3C)C2=O)cc1 (centres undefined),16
Nc1c(C(=O)O)sc2nc(-c3ccccc3)cc(-c3ccccc3)c12,15
CCN(CC)c1ccc2cc(-c3nnc(-c4ccccc4)o3)c(=O)oc2c1,-2
Cc1ccc(S(=O)(=O)N(CC(=O)NCC2CCCO2)c2cccc([N+](=O)[O-])c2)cc1 (centres undefined),13
COc1ccc(/C(=N\Nc2ccccc2C(=O)O)c2ccccc2)cc1,12
COc1cc(OC)cc(C(=O)/C=C2\Sc3ccccc3N2C)c1,15
CCCCNc1nc2c(c(=O)n(C)c(=O)n2C)n1Cc1cccc(OC)c1,14
O=c1[nH]c2c(Br)cnc([N+](=O)[O-])c2[nH]1,11
CCC(NC(=O)CCl)c1ccc(C)cc1 (centres undefined),8
CC(=O)C1=C(O)C(=O)N(Cc2ccco2)C1c1cccc(F)c1 (centres undefined),8
CN(C[C@@H](Cc1cccc2ccccc12)N(C[C@H](Cc1ccccc1)N(CCc1ccccc1)N=O)N=O)N=O,15
COC(=O)Cc1ccc(NC(=S)Nc2cccc(C)n2)cc1,7
COc1ccc(-c2cc(C(F)F)n3ncc(C(=O)N4CCc5ccccc54)c3n2)cc1,7
Cc1cc(NC(=O)CSc2nnc(-c3ccncc3)n2-c2ccccc2)no1,-7
COCCN1CCN(Cc2cn(C)nc2-c2ccc(Oc3ccccc3)cc2)CC1,17
FC(F)(F)c1cccc(NC(=S)NC(c2ccccc2)c2ccccc2)c1,9
COc1ccccc1C(=O)NC(=O)CSc1cccc[n+]1[O-],16
CC1CCCN(CCCOc2ccccc2-c2ccccc2)C1 (centres undefined),13
Cc1cccc(CN2CCN(Cc3cccc4nonc34)CC2CCO)n1 (centres undefined),7
COCCNC(=O)CSc1nc2sc(C)c(C)c2c(=O)n1-c1ccccc1,18
O=C(CSc1ccc(-c2ccccn2)nn1)NCc1ccc(Cl)cc1,10
O=C(c1ccncc1)N1CCN(C2CCC(c3ccccc3)CC2)CC1 (centres undefined),15
# Additional results.
SMILES,Calb biofilm kill
COc1n[nH]c(C(=O)Nc2cc(F)ccc2C)c1[N+](=O)[O-],11
Nc1c(-c2ccccc2)c(CN2CCOCC2)nn1-c1ccc(F)cc1,9
CC(=O)Nc1ccc(CN2CCCC(CCC(=O)NCc3ccccc3F)C2)cc1 (centres undefined),6
COc1ccccc1OCc1ccc(C(=O)N2CCN(C)CC2)o1,12
COc1ccc(CN2CCCC(C(=O)c3ccc(SC)cc3)C2)cc1Cn1cccn1 (centres undefined),9
Cc1c(C(=O)O)sc2nc3n(c(=O)c12)CCC3,10
CCCCn1c(N)c(N2CCOCC2)c(=O)n(CC(=O)NCCc2ccccc2)c1=O,12
CC(C)COP(=O)(OCC(C)C)C(Nc1ccccc1)c1ccc(F)cc1 (centres undefined),7
CCN(Cc1ccccc1)C1CCN(Cc2ccc(SC)cc2)CC1,15
CC(=O)c1sc(NC(=O)CCCOc2ccc(Cl)cc2)nc1C,2
Cc1ccc(NC(=S)NC(=O)/C=C/c2ccc(Cl)cc2)cc1,21
COc1ccc(C(=O)OCC(=O)Nc2nc3c(F)c(F)c(F)cc3s2)cc1OC,17
Cc1ccc(NC(=O)c2sc(N)nc2-c2ccc([N+](=O)[O-])cc2)c(C)c1,17
COC(=O)c1cc(C(=O)Nc2nnc(C3CC3)s2)cc([N+](=O)[O-])c1,10
Cc1nc(CC(=O)NNS(=O)(=O)c2ccc(F)c(Cl)c2)cs1,15
NC(=O)CC(NC(=O)Cc1cccc2ccccc12)c1ccc(NCc2ccccn2)c([N+](=O)[O-])c1 (centres undefined),19
Cc1ccc2[nH]c(=O)c(CN(CC3COCCO3)C(=O)Nc3ccccc3C)cc2c1 (centres undefined),1
COc1cc(O)oc1C=Nc1ccc(C(=O)O)cc1,10
COc1ccccc1OCCNC(=O)C(c1ccccc1)c1ccccc1,12
O=C(NC1(C(F)(F)F)N=C(c2ccccc2)NC1=O)c1ccccc1 (centres undefined),14
Cn1ncc2c(N3CCC(Cc4ccccc4)CC3)ncnc21,12
COc1cc(O)c(C(CC(=O)N2CCCC(C)C2)c2ccc(N(C)C)cc2)c(OC)c1 (centres undefined),18
Cc1cc(C(=O)NC(C)CCC(C)C)c2ccccc2n1 (centres undefined),12
O=S(=O)(c1ccccc1)c1cnc(-c2ccccc2)nc1N1CCCC1,13
Cc1c(C#N)c(NC(=O)CCl)n(Cc2ccccc2)c1C,13

# 4 neighbouring compounds out of the list so far:
SMILES,Calb biofilm kill
Cc1c(C(=O)O)sc2nc3n(c(=O)c12)CCC3,10
CCCCn1c(N)c(N2CCOCC2)c(=O)n(CC(=O)NCCc2ccccc2)c1=O,12
CC(C)COP(=O)(OCC(C)C)C(Nc1ccccc1)c1ccc(F)cc1 (centres undefined),7
CCN(Cc1ccccc1)C1CCN(Cc2ccc(SC)cc2)CC1,15

# More results.
SMILES,Calb biofilm kill
Cc1ccc(C)c(NC(=O)c2cccc(Oc3ccc([N+](=O)[O-])cc3Cl)c2)c1,22
O=C(NC1CC2CCCC(C1)N2Cc1cccs1)c1ccc([N+](=O)[O-])cc1 (centres undefined),19
CCCN(CCC)C(=O)C[n+]1cccc(/C=N/O)c1,27
CC(Cc1cccs1)NC(=S)Nc1ccccc1 (centres undefined),6
COc1ccc(/C(C)=N/NC(=S)Nc2cc(C)ccc2C)cc1,17
CCN1CCSc2ccc(C(=O)Nc3ccc(NC(C)=O)cc3)cc21,1
O=C(O)c1ccc2c(c1)C(=O)N(c1nccs1)C2=O,14
